KSHV LANA nucl – inhibitors of KSHV LANA binding to nucleosomes; FITC-LANA1-23 / chicken nucleosome fluorescence polarization; active compounds read low; z-score (test concentration not listed); 0.3% of 51,000 active; AID 720717;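 active means both repeat wells score below -2 in polarization z-score versus plate sample wells, excluding overly bright wells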;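 further: 100 nL library stock added to about 30 µL; numbers are from one replicate; some results filed as inactive read as strong as hits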
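System – purified chicken nucleosomes with FITC-labelled LANA N-terminal peptide (1-23) · Amount – 240 nM purified chicken nucleosomes (480 nM peptide binding sites), final · Also added – 50 nM FITC-LANA1-23 probe · Medium – TEN-BT buffer, pH 7.5 · Incubation – compound with peptide–nucleosome mix 10–45 min at room temperature · Detection – fluorescence polarization, ex 480 nm, em 535 nm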
Ab BasE inh – blocks the Acinetobacter baumannii siderophore enzyme BasE | purified BasE, fluorescence polarization binding displacement | AID 485350 | 0.1% of 84,000 active | inhibition, % (concentration not given with the values);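 active means both replicates above 25% with normal brightness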;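 further: 0% = negative plate control signal and 100% = positive plate control signal; stock transfer was 100 nL into about 30 µL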
An asterisk follows results filed as active; x = not tested or not shown; & = joins results of further samples. Some of the compounds tested. The share of hits here may be higher or lower than overall.

Screens in order – KSHV LANA nucl, Ab BasE inh
- O=C(OC1CCCCC1=O)c1cc2ccccc2[nH]1 (configuration not stated)
→ x, 0.2
- O=C1NC(=O)C2C1ON(c1ccc(Cl)cc1)C2c1ccccc1 (configuration not stated)
→ -0.763, 2.9
- O=C(COc1ccccc1)N1CCN(C(=O)c2ccccc2)CC1
→ 1.54, -5.0
- Cc1c(Br)sc2sc(-c3ccn(C)n3)c(C)c12
→ 0.53, 1.7
- COc1ccc(NC(C)=O)cc1NC(C)C(=O)NCC1CCCCC1 (configuration not stated)
→ x, 2.2
- CC1(c2ccc(C#N)cc2)NC(=O)N(CC(=O)C23CC4CC(CC(C4)C2)C3)C1=O (configuration not stated)
→ x, 1.5
- Cc1cc(Cl)ccc1OCC(=O)N=Nc1c(O)[nH]c(=O)[nH]c1=O
→ -0.881, 3.0
- Cc1ccccc1C(=O)NC(NCc1ccco1)(C(F)(F)F)C(F)(F)F
→ 0.155, -1.2
- C1CN(c2nc3nonc3nc2N2CCOCC2)CCO1
→ 0.597, 1.8
- COCCn1c(SCC(=O)c2ccccc2)nnc1-c1ccccc1
→ 0.223, 2.0
- Cn1cc(CCC(=O)O)c2ccccc21
→ 0.0265, 0.3
- Cc1cccc2cc(CN(Cc3ccco3)C(=O)N3CCOCC3)c(Cl)nc12
→ 0.518, -0.7
- O=c1c2ccccc2c(/C=N/c2ccccn2)c(O)n1-c1ccccc1
→ x, -1.5
- CN(C(=O)NC(=O)Nc1ccc(C=C(C#N)C#N)cc1)S(C)(=O)=O
→ x, -1.1
- O=C(CS(=O)(=O)c1ccccc1)NCc1ccccc1
→ -1.04, 3.8
- COc1ccc(NS(=O)(=O)c2ccc(NC(=O)c3ccc(Br)o3)cc2)cc1
→ -0.863, -0.1
- Cc1cc(SCC(=O)c2cc(C)n(C)c2C)n2c(nc3ccccc32)c1C#N
→ x, 2.4
- COC(=O)c1cc(COC(=O)COc2ccc(C)c(C)c2)oc1C
→ x, 1.9
- Cn1nccc1C(=O)OCC(=O)c1ccccc1
→ 2.19, -0.2
- CS(=O)(=O)N1N=C(c2ccc(Br)cc2)CC1c1nc2ccccc2[nH]1 (configuration not stated)
→ 1.54, -5.1
- COC(Cn1c(SCC(=O)c2cccc(C(F)(F)F)c2)nnc1-c1ccc(Cl)cc1)OC
→ x, 1.7
- Cc1cc(C)n2nc(C(=O)N3CCCSC3=Nc3ccccc3)nc2n1
→ x, 0.2
- CCOC(=O)c1c(Nc2nc(C)cs2)sc2c1CCCC2
→ x, 0.5
- Nc1ccc(CNc2ncn[nH]2)cc1
→ -0.639, 0.4
- CCCCNC(=O)C1CCC(=O)N(c2ccc(OC)cc2)C1c1ccc(OC)cc1 (configuration not stated)
→ 0.102, 2.3
- CC(C)(C)CC(=O)NCc1ccc(F)cc1
→ -0.89, 0.6
- N#CC(C(=O)c1cc(=O)c2cc(Cl)ccc2o1)c1ccccn1 (configuration not stated)
→ x, 0.7
- O=c1[nH]c2nonc2nc1Nc1ccccc1
→ -1.63, -0.8
- COc1ccc(C2(C(=O)NCCc3ccccc3)CCCC2)cc1OC
→ x, -0.1
- Cn1c(Cc2nc(-c3cnccn3)no2)nnc1SCC(=O)Nc1ccc(Cl)cc1
→ x, 0.2

Part of the list above, as a markdown table.
| canonical_smiles | KSHV LANA nucl | Ab BasE inh |
| --- | --- | --- |
| COc1ccc(NS(=O)(=O)c2ccc(NC(=O)c3ccc(Br)o3)cc2)cc1 | -0.863 | -0.1 |
| Cc1cc(SCC(=O)c2cc(C)n(C)c2C)n2c(nc3ccccc32)c1C#N | x | 2.4 |

(continued)
Screens in order – KSHV LANA nucl, Ab BasE inh
- COC(=O)c1ccc(C)cc1
→ x, 3.2
- NS(=O)(=O)c1ccc(CNC(=O)c2ccco2)cc1
→ 1.98, -0.3
- Cc1ccc(C(=O)Nc2ccccc2C(=O)NCc2ccco2)cc1
→ x, 0.5
- O=C(COC(=O)C1CCC(=O)N1)Nc1nc(-c2ccccc2)cs1 (configuration not stated)
→ x, 2.1
- COc1ccccc1N1CCN(C2Sc3ccccc3NC2=O)CC1 (configuration not stated)
→ x, -0.2
- COc1ccc(-c2csc(=Nc3ccccc3)n2CCCN(C)C)cc1
→ x, 2.6
- O=S(=O)(c1ccccc1)n1ccc2cccnc21
→ 0.277, x
- CC(N)c1nc(-c2ccccc2Cl)no1 (configuration not stated)
→ -0.303, -0.6
- Cc1ccc(C(=O)c2coc3ccc(O)c(CN4CCN(C)CC4)c23)cc1
→ -1.44, -2.3
- Cc1cc(C)n2ncc(C(=O)NCCC(C)C)c2n1
→ 0.7, 1.1
- Cc1noc(C)c1CSc1nnc(Nc2ccccc2)s1
→ x, -0.1
- CCCCCn1c(=O)c2ccccc2n2c(Cn3nnc4ccccc4c3=O)nnc12
→ x, 0.1
- CCOc1ncccc1C(=O)NCc1ccc(OC)cc1
→ -0.773, x
- O=c1c2ccccc2nc2c3ccccc3c(NCc3ccco3)nn12
→ -1.02, 1.7
- Cc1cc(=O)oc2cc(OCc3ccc4c(c3)OCO4)ccc12
→ -0.113, -0.2
- COc1ccc(OCC(O)CNC(=O)C2CCN(c3nccc(C(F)(F)F)n3)CC2)cc1 (configuration not stated)
→ -0.149, 1.4
- CNC(=O)CCC(=O)N1Cc2ccccc2Oc2ncccc21
→ x, -1.6
- Nc1ccc2c(c1)ncn2CCO
→ -0.833, 2.8
- CN(CC(=O)NC(=O)Nc1ccc2c(c1)OCCO2)Cc1ccc2c(c1)OCCO2
→ x, -0.5
- COc1ccccc1CCC(=O)NCc1ccccc1
→ x, -0.1
- O=C(C[n+]1ccc(/C=N/O)cc1)NC1CCCCC1
→ x, 1.1
- O=C(CSc1nnc(Cc2cccs2)n1C1CC1)Nc1ccc2c(c1)OCO2
→ x, -1.1
- NC(=O)Cn1c(=O)cnc2ccccc21
→ x, 1.5
- O=C(NCc1ccco1)C(Sc1ccccc1)c1ccccc1 (configuration not stated)
→ -0.563, 1.2
- CN(CC(=O)Nc1ccc(N2CCOCC2)cc1)CC(=O)Nc1ccc2c(c1)OCO2
→ x, 3.4
- COCCn1c(COc2cccc(OC)c2)nnc1SCC(=O)NC1CCCC1
→ -1.43, 1.3
- CCN(Cc1nc2ccccc2c(=O)[nH]1)C(=O)Nc1ccc(Cl)cc1
→ x, 7.0
- CCCn1c(N)c(C(=O)CSc2ccc3c(c2)OCCO3)c(=O)[nH]c1=O
→ x, 0.7
- Cc1nonc1CC(=O)O
→ -1.51, -0.9
- Cc1ccc2c(c1)nnn2C1CCN(C(=O)c2ccccc2)CC1
→ 0.528, -0.9

3 entries from above, with bars between the fields.
smiles | KSHV LANA nucl | Ab BasE inh
CC(C)(C)CC(=O)NCc1ccc(F)cc1 | -0.89 | 0.6
N#CC(C(=O)c1cc(=O)c2cc(Cl)ccc2o1)c1ccccn1 (configuration not stated) | x | 0.7
O=c1[nH]c2nonc2nc1Nc1ccccc1 | -1.63 | -0.8

(more compounds)
Screens in order – KSHV LANA nucl, Ab BasE inh
- Nn1c(SCc2cc(=O)n3cc(Br)ccc3n2)nnc1C1CCCCC1
→ x, -0.7
- C#CCOc1ccc(/C=C(/C#N)c2ccc(C(=O)O)cc2)cc1OC
→ 0.825, 2.3
- O=C(O)c1cccc(-c2ccc(/C=C3\Sc4ccccc4C3=O)o2)c1
→ 4.89, -17.8
- Cc1cc(=O)oc2cc(NC(=O)c3ccc4c(c3)S(=O)(=O)N=C3CCCCCN34)ccc12
→ x, 0.9
- CSc1sc(-c2[nH]ncc2Br)c2c1C(=O)CC(C)(C)C2
→ x, -1.2
- N[C@H]1CONC1=O
→ 0.201, -1.1
- CCOC(=O)c1c(C)sc2c3c([nH]c12)CCCC3
→ x, -7.1
- O=C1N=C(N2CCN(c3ccccc3)CC2)SC1Cc1ccccc1 (configuration not stated)
→ -0.159, 2.6
- NC(CO)CSCc1ccccc1 (configuration not stated)
→ -0.344, -1.4
- C=CCn1c(=O)/c(=C/c2sccc2C)s/c1=C(/C#N)C(=O)NCc1ccco1
→ x, 13.6
- COc1cc2c(cc1OC)C(c1ccccc1)N(C(=O)COC(=O)C1=NNC(=O)CC1)CC2 (configuration not stated)
→ x, 0.3
- CCOc1ccc([C@@H]2[C@H](C(=O)O)c3ccccc3C(=O)N2Cc2ccccc2)c(O)c1
→ x, 4.5
- Cn1c(=O)c2c(n3nnnc13)-c1ccccc1CC21CCCC1
→ -1.3, 0.7
- Cc1ccc(C2C(C#N)=C(N)SC(N)=C2C#N)c(C)c1
→ -10.8, 12.9
- COc1ccc(Nc2ssc(=O)c2Cl)cc1OC
→ x, -8.8
- CN(CC(=O)Nc1ccccc1Br)c1ncnc2sccc12
→ x, -2.3
- CCC(C)NS(=O)(=O)c1ccc(C)cc1C (configuration not stated)
→ x, 1.6
- O=C(Nc1ccc(Oc2ccccc2)cc1)C1CCN(c2nc3ccccc3o2)CC1
→ x, 1.6
- CCOc1ccc(NC(=O)C/C(N)=N/O)cc1
→ 0.333, 2.0
- CC(OC(=O)c1cccc(NS(C)(=O)=O)c1)C(=O)Nc1ccc(N2CCOCC2)cc1 (configuration not stated)
→ x, -1.8
- Cc1nc(N)nc2[nH]c(=O)n(-c3ccccc3)c(=O)c12
→ 0.768, -0.3
- CCC(C)NC(=O)CCn1c(=O)c2cccn2c2ccc(F)cc21 (configuration not stated)
→ 0.444, 0.2
- CC1CN(S(=O)(=O)c2ccc(NC(=O)CCS(=O)(=O)c3ccccc3)cc2)CC(C)O1 (configuration not stated)
→ x, -2.9
- CN(C)Cc1c(C(=O)N/N=C/CCc2ccccc2)nnn1-c1nonc1N
→ -0.589, 0.1
- O=C(c1ccc(CN2C(=O)CCn3nc(-c4ccccc4)cc32)cc1)N1CCN(c2ccccn2)CC1
→ x, -3.9
- CC(C)CNC(=O)c1ccc(COCC(F)(F)C(F)F)o1
→ 0.319, 1.7
- Cc1nn(CCOc2c(Cl)cccc2Cl)c(=O)c(C#N)c1C
→ x, 0.1
- O=c1c(Br)c(N2CCNCC2)cnn1-c1ccccc1
→ -0.542, 3.7
- O=C(NC1CCCCCC1)[C@@H]1CCCN1S(=O)(=O)c1ccc2c(c1)OCCO2
→ x, 2.5
- O=C(CCn1c(SCc2cccc(F)c2)nc2cc3c(cc2c1=O)OCO3)NCc1ccc2c(c1)OCO2
→ 0.564, 0.4
- Cc1nc(N(c2ccccc2)c2ccccc2)sc1C
→ x, 0.9
- O=C(Nc1ccccc1Sc1ncnc2sc3c(c12)CCCC3)c1cccs1
→ x, -4.7
- O=C(O)C1CC1c1ccccc1 (configuration not stated)
→ 0.662, -1.7
- N#CC1=C(N)N(N2CCOCC2)C2=C(C(=O)CC(c3ccccc3)C2)C1c1ccccc1Cl (configuration not stated)
→ x, 0.5
- CCOc1ccc(N(C(=O)NC2CCCCC2)C2=NCCCCC2)cc1
→ x, 1.9
- Cc1c(C#N)c(NC(=O)Cc2c(Cl)cccc2Cl)n(C2CCCCC2)c1C
→ x, -0.3
- CC(=O)NC12CC3CC(C1)CC(C(=O)OCC(=O)Nc1cc(C)nn1-c1ccccc1)(C3)C2
→ x, 0.7
- CC(=O)N1CCc2[nH]c3ccccc3c2C1
→ -0.479, -2.1
- Nc1cccnc1-n1nc(C(F)(F)F)cc1C(F)(F)F
→ -1.11, x
- CCN1CCN(C(=O)c2cccc(Nc3nc4ccccc4n4cnnc34)c2)CC1
→ -0.066, -0.1
- O=C(Nc1ccccc1)OC1CCCC1
→ x, -0.9
- CCN(c1nc(C)cc(OC)n1)S(=O)(=O)c1ccc(C)cc1
→ x, 1.8
- CN(C)CCC(c1ccc(Cl)cc1)c1ccccn1 (configuration not stated)
→ 0.59&-0.148&0.121&0.067, -3.6
- CCOC(=O)c1c(NC(=S)N2CCc3ccccc32)sc2c1CCN(C(=O)OCC)C2
→ x, -1.9
- O=P1(NCc2ccco2)C=C(c2ccccc2)OC(c2ccccc2)=C1
→ x, -2.6
- O=C(O)CCc1ccc(S(=O)(=O)Nc2cc(C(F)(F)F)ccc2N2CCCC2)cc1
→ x, 1.1
- CC1=C(C#N)C(=O)N(CCc2ccccc2)C(=O)/C1=C/c1ccc(-c2ccc3c(c2)COC3=O)o1
→ 0.228, 3.8
- CCN1C(=O)/C(=C2/SC(c3ccccc3)=C3N=CC(C)=CN32)SC1=S
→ 0.936, -6.4
- CC(C)N1CC2(c3ccccc31)N1CC3(C)CN2CC(C)(C1)C3=O (configuration not stated)
→ x, 0.7
- OCc1nc(-c2cc(C(F)(F)F)cc(C(F)(F)F)c2)cs1
→ x, -0.7
- COc1cccc(NC(=S)N(C2CCCCC2)C(C)c2ccco2)c1 (configuration not stated)
→ -0.475, 2.6
- Cc1c(C(=O)c2ccc(OC(F)F)cc2)oc2ccc(F)cc12
→ x, -0.1
- O=C(O)CSc1nc2c(n1-c1ccccc1)CCCC2
→ x, 3.2
- COC(=O)c1sc(-c2cccs2)cc1NS(=O)(=O)c1ccc(C)cc1
→ x, 2.9
- NC(=O)c1cccc2cccc(I)c12
→ 0.295, 4.2
- CCOC(=O)c1csc(-c2ccc(-c3csnn3)cc2)n1
→ -0.481, -2.5
- O=C1C2C3C=CC(C3)C2C(=O)N1c1ccccc1 (configuration not stated)
→ x, 2.2
- Cc1cc(=O)n2[nH]c(CC(=O)O)nc2n1
→ 0.358, 1.1
- CN1CCC(NC(=S)NC2CC2)CC1
→ -0.311, 0.1
- N#Cc1ccc(CSc2nnc(-c3cccc(S(=O)(=O)N4CCCCC4)c3)n2-c2ccccc2)cc1
→ x, 0.7

Continued:
Screens in order – KSHV LANA nucl, Ab BasE inh
- FC(F)(F)c1cc(Oc2ccccc2)nc(-c2ccccn2)n1
→ 0.0545, x
- CCOC(=O)CSc1nc(-c2ccccc2)c(C#N)c(=O)[nH]1
→ -1.82, 1.1
- N#CCSc1nc2ccccc2c(=O)n1CC1CCCC1
→ -0.32, -1.3
- CC(=O)N1CCN(Cc2nc3ccc(NC(=O)Cn4nc(C)c5ccccc5c4=O)cc3n2C)CC1
→ -1.43, -6.1
